AF4-AF9 inh: inhibitors of AF4 peptide binding to AF9, primary screen, biochemical, AlphaScreen, biotin-AF4 peptide, FLAG-AF9, single point | 350,000 compounds, 0.47% hits | Protein AF-9 (Homo sapiens), P42568 | AID 651704, 2012 | inhibition, % at 10 µM;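 active = every replicate reaching a set inhibition limit, whatever the replicate mean, cut at about 25% in these data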;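 note: 0% = plate neutral control median and 100% = total signal loss; the record names both 10 and 1 µM as test concentration; the first replicate is given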
Target sequence (P42568 whole entry, looked up): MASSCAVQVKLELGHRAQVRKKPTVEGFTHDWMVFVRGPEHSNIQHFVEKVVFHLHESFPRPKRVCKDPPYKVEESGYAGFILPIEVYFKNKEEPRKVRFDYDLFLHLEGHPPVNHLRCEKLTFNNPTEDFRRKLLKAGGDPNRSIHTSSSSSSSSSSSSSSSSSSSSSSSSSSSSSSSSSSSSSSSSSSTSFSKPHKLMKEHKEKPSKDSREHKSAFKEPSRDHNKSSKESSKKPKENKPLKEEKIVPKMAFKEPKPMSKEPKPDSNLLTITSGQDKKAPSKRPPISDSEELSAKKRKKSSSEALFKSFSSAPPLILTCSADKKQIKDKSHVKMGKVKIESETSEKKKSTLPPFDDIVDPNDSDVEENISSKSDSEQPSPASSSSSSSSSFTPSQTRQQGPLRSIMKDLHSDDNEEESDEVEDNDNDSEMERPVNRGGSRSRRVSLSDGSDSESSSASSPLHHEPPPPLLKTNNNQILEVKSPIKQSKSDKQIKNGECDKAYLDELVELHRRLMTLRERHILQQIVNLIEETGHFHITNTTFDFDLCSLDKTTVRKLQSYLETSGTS
Numbers without * were called inactive.

The first five compounds as a preview:
Screening Cc1noc(C)c1NC(=O)Nc1ccc2c(c1)C(=O)N([C@H](C)CO)C[C@@H](C)[C@H](CN(C)S(=O)(=O)c1ccc(F)cc1)OCCCC[C@H](C)O2 returned AF4-AF9 inh 2.8.
`COC(=O)[C@]12CCCCC=C1N(Cc1ccccc1)C(=O)[C@H](CC(=O)NCc1ccccc1)C2` gave AF4-AF9 inh 0.2.
`O=C(COC(=O)/C=C/c1ccccc1)NC(=O)NCc1ccccc1` gave AF4-AF9 inh -5.3.
O=C(Nc1cccc(Cl)c1)N[C@@H]1CC[C@H](CCNC(=O)C2CCC2)O[C@@H]1CO was read as AF4-AF9 inh -9.4.
For C[C@H](CO)N1C[C@H](C)[C@@H](CN(C)Cc2ccc(Oc3ccccc3)cc2)Oc2c(NS(=O)(=O)c3ccc(F)cc3)cccc2C1=O the results were AF4-AF9 inh 4.4.

Main list, previewed entries included:
Screening Cc1noc(C)c1NC(=O)Nc1ccc2c(c1)C(=O)N([C@H](C)CO)C[C@@H](C)[C@H](CN(C)S(=O)(=O)c1ccc(F)cc1)OCCCC[C@H](C)O2 returned AF4-AF9 inh 2.8.
`COC(=O)[C@]12CCCCC=C1N(Cc1ccccc1)C(=O)[C@H](CC(=O)NCc1ccccc1)C2` gave AF4-AF9 inh 0.2.
`O=C(COC(=O)/C=C/c1ccccc1)NC(=O)NCc1ccccc1` gave AF4-AF9 inh -5.3.
O=C(Nc1cccc(Cl)c1)N[C@@H]1CC[C@H](CCNC(=O)C2CCC2)O[C@@H]1CO was read as AF4-AF9 inh -9.4.
For C[C@H](CO)N1C[C@H](C)[C@@H](CN(C)Cc2ccc(Oc3ccccc3)cc2)Oc2c(NS(=O)(=O)c3ccc(F)cc3)cccc2C1=O the results were AF4-AF9 inh 4.4.
`O=C(NCC(F)(F)F)[C@H]1[C@H](CO)[C@H]2Cn3c(cccc3=O)[C@H]2N1CCC(F)(F)F` gave AF4-AF9 inh -0.5.
Screening C[C@H]1CN([C@@H](C)CO)C(=O)Cc2cc(NS(=O)(=O)c3ccc(F)cc3)ccc2O[C@H]1CN(C)Cc1ccc2c(c1)OCO2 returned AF4-AF9 inh 2.3.
For O=C1CN(Cc2ccccc2)C[C@@H]2[C@@H](c3ccc(-c4ccccc4F)cc3)[C@@H](CO)N12 the results were AF4-AF9 inh -4.8.
CCOc1ccc(CCN2C(=S)N([C@@H](CC(C)C)CN3CCCC3CN3C(=S)NC[C@@H]3CC(C)C)C[C@@H]2Cc2ccc(O)cc2)cc1 (some centres undefined) was read as AF4-AF9 inh 4.4.
For C[C@H]1CN([C@@H](C)CO)C(=O)c2cccc(NC(=O)c3ccc(-c4nccs4)cc3)c2O[C@@H]1CN(C)S(=O)(=O)c1ccc(F)cc1 the results were AF4-AF9 inh -0.3.
COc1ccccc1NC(=O)N1CC(=O)N2[C@H](CO)[C@H](c3ccc(C#Cc4ccc(F)cc4)cc3)[C@@H]2C1 was read as AF4-AF9 inh -1.0.
`O=C(c1cccc(F)c1)N1CC[C@@H]2[C@@H](CO)Nc3ccc(C#Cc4ccccc4)cc3[C@@H]21` gave AF4-AF9 inh 1.2.
O=C(c1cccnc1)N1CCCCN2[C@H](C1)[C@H](c1ccc(C#Cc3cccnc3)cc1)[C@@H]2CO was read as AF4-AF9 inh 20.
Screening CCCN(C)C[C@H]1Oc2cc(C#CC3CCCC3)ccc2S(=O)(=O)N([C@@H](C)CO)C[C@H]1C returned AF4-AF9 inh 4.3.
Screening CC(=O)N1Cc2cc(C(=O)NCC(F)(F)F)nc(-c3cccc(-c4cncnc4)c3)c2[C@H]1CCO returned AF4-AF9 inh 2.2.
`O=C(C[C@H]1C[C@H]2c3cc(NS(=O)(=O)c4ccccc4)ccc3O[C@H]2[C@@H](CO)O1)NCC1CC1` gave AF4-AF9 inh -0.3.
Screening COc1ccc2oc3c(ccc[n+]3C)c(=O)c2c1 returned AF4-AF9 inh -0.5.
`CCC(=O)N1CC2(C1)[C@H](c1ccccc1)[C@H](CO)N2C(=O)c1ccncc1` gave AF4-AF9 inh -0.1.
CCCC(=O)N1CCC2(CC1)CN(Cc1ccncc1)[C@H](CO)c1[nH]c3cc(OC)ccc3c12 was read as AF4-AF9 inh 2.9.
Screening C[C@@H]1CN([C@@H](C)CO)C(=O)c2cc(NC(=O)Cc3ccccc3)ccc2O[C@@H]1CN(C)Cc1ccc(C(=O)Nc2ccccc2N)cc1 returned AF4-AF9 inh 1.7.

Three compounds from above, sorted by SMILES length, highest first.
COc1ccccc1NC(=O)N1CC(=O)N2[C@H](CO)[C@H](c3ccc(C#Cc4ccc(F)cc4)cc3)[C@@H]2C1 was read as AF4-AF9 inh -1.0.
`O=C(c1cccc(F)c1)N1CC[C@@H]2[C@@H](CO)Nc3ccc(C#Cc4ccccc4)cc3[C@@H]21` gave AF4-AF9 inh 1.2.
`CCC(=O)N1CC2(C1)[C@H](c1ccccc1)[C@H](CO)N2C(=O)c1ccncc1` gave AF4-AF9 inh -0.1.

Carrying on:
Screening COc1ccc2c3c(n(C)c2c1)[C@H](CO)N(C(=O)CN(C)C)CC31CCN(S(C)(=O)=O)CC1 returned AF4-AF9 inh 0.6.
Screening COc1cccc(S(=O)(=O)Nc2ccc3c(c2)[C@H]2C[C@@H](CC(=O)O)O[C@@H](CO)[C@H]2O3)c1 returned AF4-AF9 inh -2.8.
For COc1ccc(NC(=O)N(C)C[C@@H]2Oc3ccc(NS(=O)(=O)c4cccs4)cc3C(=O)N([C@H](C)CO)C[C@@H]2C)cc1 the results were AF4-AF9 inh -2.7.
Screening CCCc1c(C(=O)N/N=C(\C)c2ccc(CC(C)C)cc2)nnn1-c1nonc1N returned AF4-AF9 inh -0.5.
O=C(C[C@@H]1CC[C@H](NC(=O)c2ccncc2)[C@@H](CO)O1)NCC1CC1 was read as AF4-AF9 inh -19.
Screening CN1C(=O)c2cc(NC(=O)c3ccc4c(c3)OCO4)ccc2OC[C@H]2O[C@H](CC(=O)O)CC[C@H]21 returned AF4-AF9 inh -1.7.
CC(C)C#Cc1ccc([C@H]2[C@@H](CO)N(C(=O)c3cccc(F)c3)[C@H]2C#N)cc1 was read as AF4-AF9 inh -1.7.
CNC[C@H]1Oc2ccc(NC(=O)Cn3cnnn3)cc2C(=O)N([C@H](C)CO)C[C@H]1C was read as AF4-AF9 inh -2.0.
Screening CC(C)NC(=O)N(C)C[C@@H]1Oc2ccc(NC(=O)CCCCCC(=O)Nc3ccccc3N)cc2CC(=O)N([C@@H](C)CO)C[C@@H]1C returned AF4-AF9 inh -0.1.
`C[C@@H]1CN([C@H](C)CO)C(=O)c2cc(C3=CCCC3)cnc2O[C@@H]1CN(C)C(=O)c1ccncc1` gave AF4-AF9 inh -5.3.
CO[C@H]1CN(C)C(=O)c2ccc(NC(=O)Nc3cccc(F)c3)cc2OC[C@H](C)N(C(C)=O)C[C@H]1C was read as AF4-AF9 inh 5.9.
O=C(c1ccc(F)cc1)C1CCN(C(=O)c2ccc(Cl)cc2)CC1 was read as AF4-AF9 inh 0.7.
`C[C@H]1CN([C@@H](C)CO)C(=O)c2cc(-c3cncnc3)cnc2O[C@@H]1CN(C)Cc1ccc(F)cc1` gave AF4-AF9 inh -3.4.
Cc1noc(C)c1NC(=O)Nc1ccc2c(c1)C(=O)N([C@@H](C)CO)C[C@H](C)[C@@H](CN(C)C(=O)NC1CCCCC1)O2 was read as AF4-AF9 inh 1.6.
Screening CO[C@H]1CN(C)C(=O)c2cc(NC(=O)C3CCCC3)ccc2OC[C@H](C)N(C(=O)CC2CC2)C[C@@H]1C returned AF4-AF9 inh -0.1.
Screening CN(C[C@@H]1N[C@H](CO)[C@@H]1c1ccc(-c2cccc(F)c2)cc1)C(=O)CC1CC1 returned AF4-AF9 inh 1.6.
Screening O=C(C1CCCC1)N1CC(=O)N2[C@H](CO)[C@H](c3ccc(C#CCc4ccccc4)cc3)[C@H]2C1 returned AF4-AF9 inh 5.3.
`C[C@@H]1CN([C@H](C)CO)C(=O)Cc2cc(NC(=O)Cc3ccccc3)ccc2O[C@H]1CN(C)C(=O)Nc1ccc(C(F)(F)F)cc1` gave AF4-AF9 inh 0.5.
For C[C@@H](NC(=O)C[C@H]1C[C@H]2c3cc(NC(=O)C4CCC4)ccc3O[C@H]2[C@H](CO)O1)c1ccccc1 the results were AF4-AF9 inh 2.1.
CO[C@H]1CN(C)C(=O)c2cc(NC(=O)c3ccccc3)ccc2OC[C@@H](C)N(C(=O)C2CC2)C[C@@H]1C was read as AF4-AF9 inh 1.2.
`C[C@@H]1CN([C@@H](C)CO)C(=O)c2cc(NC(=O)c3ccncc3)ccc2O[C@@H](C)CCCCO[C@@H]1CN(C)Cc1ccc(C(=O)O)cc1` gave AF4-AF9 inh -3.0.
Screening CO[C@@H]1CN(C)C(=O)c2ccc(NC(=O)C3CCOCC3)cc2OC[C@H](C)N(Cc2cccnc2)C[C@H]1C returned AF4-AF9 inh -1.7.
`O=C(O)[C@H]1[C@H](CO)[C@H]2Cn3c(ccc(-c4ccccc4F)c3=O)[C@H]2N1Cc1ccccc1` gave AF4-AF9 inh 0.8.
`COc1ccccc1CCn1cnc(-c2ccccc2)c1CC(C)C` gave AF4-AF9 inh 9.6.
`CC(C)NC(=O)C1(C)CCN1C/C=C/c1ccccc1` (centres undefined) gave AF4-AF9 inh -1.6.
Screening O=C(Nc1ccc(F)cc1)N1[C@H](CO)[C@@H]2c3ccccc3NC[C@@H]21 returned AF4-AF9 inh -0.9.
Screening COc1ccc(NC(=O)Nc2ccc3c(c2)CC(=O)N([C@H](C)CO)C[C@H](C)[C@@H](CN(C)S(=O)(=O)c2ccccc2)O3)cc1 returned AF4-AF9 inh 1.6.
CCOC(=O)C1=CC[C@@H](c2ccccc2)N(S(=O)(=O)c2ccc(C)cc2)[C@@H]1C#N was read as AF4-AF9 inh 0.2.
`Cc1noc(C)c1NC(=O)N(C)C[C@H]1OCCCC[C@H](C)Oc2ccc(N(C)C)cc2C(=O)N([C@@H](C)CO)C[C@@H]1C` gave AF4-AF9 inh -2.0.
`O=C(CC(F)(F)F)N1C[C@H]2[C@@H](c3ccccc31)[C@@H](CO)N2C(=O)C1CCOCC1` gave AF4-AF9 inh 1.2.
CCCC(=O)N1CC2(CN(C(=O)CC3CC3)C2)c2c(n(C)c3cc(OC)ccc23)[C@@H]1CO was read as AF4-AF9 inh 0.6.
For CC(C)NC(=O)N(C)C[C@H]1Oc2c(cccc2N(C)C)C(=O)N([C@H](C)CO)C[C@H]1C the results were AF4-AF9 inh -3.7.
Screening COCC(=O)N1C[C@@H]2[C@H](c3ccccc31)[C@H](CO)N2Cc1cc(F)ccc1F returned AF4-AF9 inh 0.1.
For O=C(Nc1ccc(Cl)cc1)N[C@H]1CC[C@@H](CCn2cc(-c3ccccc3F)nn2)O[C@H]1CO the results were AF4-AF9 inh -1.2.
`CO[C@@H](CN(C)C(=O)Nc1ccc(Cl)cc1)[C@H](C)CN(Cc1ccccc1Cl)[C@H](C)CO` gave AF4-AF9 inh 1.3.
For C[C@@H]1CCCCO[C@@H](CN(C)C(=O)C2CCCCC2)[C@@H](C)CN([C@@H](C)CO)C(=O)c2cc(NS(=O)(=O)c3ccc(F)cc3)ccc2O1 the results were AF4-AF9 inh 4.2.
`COCC#Cc1ccc2c(c1)O[C@H](CN(C)S(=O)(=O)c1cccc(OC)c1)[C@@H](C)CN([C@@H](C)CO)S2(=O)=O` gave AF4-AF9 inh -0.9.
Screening COc1cccc(C#Cc2ccc([C@H]3[C@@H](CO)N4C(=O)CN(C(=O)Cc5ccccc5)C[C@@H]34)cc2)c1 returned AF4-AF9 inh -2.4.
`CC(C)NC(=O)Nc1ccc2c(c1)C(=O)N([C@H](C)CO)C[C@H](C)[C@@H](CN(C)S(C)(=O)=O)OCCCC[C@H](C)O2` gave AF4-AF9 inh -10.
`CC(=O)N(C)C[C@H]1Oc2ncc(C#CC3(O)CCCC3)cc2C(=O)N([C@H](C)CO)C[C@@H]1C` gave AF4-AF9 inh -2.6.
For CCS(=O)(=O)N1CCCCN2[C@H](CO)[C@H](c3ccc(-c4ccccc4F)cc3)[C@@H]2C1 the results were AF4-AF9 inh -5.6.
`C[C@H]1CN([C@@H](C)CO)C(=O)CCCn2cc(nn2)CO[C@H]1CN(C)C(=O)Nc1ccc(-c2cccs2)cc1` gave AF4-AF9 inh -1.1.
`O=C1CNC[C@H]2[C@@H](c3ccc(-c4ccccc4F)cc3)[C@H](CO)N12` gave AF4-AF9 inh -1.3.
`CCOC(=O)[C@]12CCCC=C1N(CCC1=CCCCC1)C(=O)[C@H](CC(=O)N1CCN(C(=O)c3ccco3)CC1)C2` gave AF4-AF9 inh 2.9.
Screening COCCNC(=O)C1(C)CCN(Cc2cccc(Oc3ccccc3)c2)C1 (centres undefined) returned AF4-AF9 inh -3.2.
Screening Cc1noc(C)c1NC(=O)N(C)C[C@@H]1Oc2ccc(NC(=O)C3CC3)cc2CC(=O)N([C@H](C)CO)C[C@@H]1C returned AF4-AF9 inh -1.4.
Screening C/C=C/c1ccc([C@@H]2[C@H]3CN(C(=O)Nc4ccc(OC)cc4)CC(=O)N3[C@H]2CO)cc1 returned AF4-AF9 inh 5.7.
C[C@@H]1CCCCO[C@@H](CN(C)C(=O)CCC(F)(F)F)[C@@H](C)CN([C@H](C)CO)C(=O)c2cc(NC(=O)Nc3ccccc3)ccc2O1 was read as AF4-AF9 inh -0.7.
For CCCN1C[C@H](C)[C@@H](OC)CN(C)C(=O)c2cc(NS(=O)(=O)c3cn(C)cn3)ccc2OC[C@H]1C the results were AF4-AF9 inh -1.9.
Screening CCc1nc2ccc(C(=O)NCc3ccc4c(c3)OCO4)cn2c1N(CC)Cc1cccc(Br)c1 returned AF4-AF9 inh -0.1.
COc1ccc(S(=O)(=O)N[C@H]2CC[C@@H](CC(=O)NCc3ccccc3F)O[C@@H]2CO)cc1 was read as AF4-AF9 inh -0.8.
For Cc1noc(C)c1NC(=O)N(C)C[C@@H]1OCCCC[C@H](C)Oc2ccc(NC(=O)c3ccccc3)cc2C(=O)N([C@@H](C)CO)C[C@@H]1C the results were AF4-AF9 inh -4.6.
For C/C=C/c1cnc2c(c1)C(=O)N([C@H](C)CO)C[C@@H](C)[C@H](CN(C)C(=O)Nc1ccc(C(F)(F)F)cc1)O2 the results were AF4-AF9 inh 1.2.

Compound activity deposited in PubChem BioAssay by Broad Institute.

A portion of the library. The share of hits here may be higher or lower than overall.
